# HSD17B inh = inhibitors of human HSD17B10 dehydrogenase; Q99714; recombinant HSD17B10, NADH fluorescence kinetic; many of its hits are not listed in these tables; Potency, µM (series often up to 57.1 µM), for inactives: top-dose activity change, negative = inhibition, usual class: inhibitors; hit rate 7.6% among 75,000; AID 893; active means well fitted inhibition curve with a large enough effect; inconclusive means small, poorly fitted or top-dose-only effect; inactive means no such curve, though single readings can be large or run the other way;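 further: the protocol describes HADH2 (HSD17B10) and not the HSD17B4 of the title; nearly all actives have a fitted effect of over 70% in size; most hits overshoot -100% by far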
#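 Activity followed as NADH fluorescence increase (ex 360, em 450 nm) every 30 seconds for 4 min, using final 90 uM beta-hydroxybutyryl CoA and 1 mM NAD+. Recombinant His-tagged enzyme, 20 nM, pH 9.0 Tris buffer, 15 min compound preincubation.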
# * = called active by the depositor; ? = inconclusive; [ ] = remark or other dose. On the % scale 0 is the no-effect control and ±100 the full control effect; potency means the concentration at half of the fitted maximal effect. Some of the compounds tested; count on the stated rates, not on these rows.
SMILES,HSD17B inh
O=C(c1ccc2c(c1)OCO2)N1CCN(c2ccccc2)CC1,?
CCCOc1ccc(N2C(=O)CC(N3CCN(c4ccccc4OC)CC3)C2=O)cc1 (stereo not drawn),-9.0%
Cc1ccc(NC(=O)c2c(-c3c(F)cccc3Cl)noc2C)cc1F,-9.5%
Cc1ccc2oc(=O)n(Cc3ccccc3OC(C)C)c2c1,2.5%
CC(C)CNS(=O)(=O)c1ccc(OCC(=O)Nc2ccc3c(c2)OCO3)c(Cl)c1,-5.6%
COc1ccc(NC(=O)CC2Sc3ncnn3C2=O)cc1 (stereo not drawn),-15.2%
COc1ccccc1NC(=O)c1cc(C(=O)O)ccc1C(=O)O,-4.5%
COc1ccc(Cl)cc1NS(=O)(=O)c1ccc(S(=O)(=O)N2CCCC2)cc1,?
O=C(O)CC(CC(=O)O)n1cccc1,1.6%[11.4 µM]
O=C(Nc1cccc(NC(=O)c2cccnc2)c1)c1cccnc1,8.7%
CN(C)Cc1ccc(-c2cc3onc(-c4ccccc4)c3c(=O)n2C)cc1,3.3%[11.4 µM]
CSc1nc2n(n1)C(c1cc(Br)ccc1F)C(C(=O)N(C)C)=C(C)N2 (stereo not drawn),-4.8%
O=C(NCCc1ccccc1)c1ccnc(/C=N/O)c1,10.7%
Cc1cc(C)n(Cc2cccc(F)c2)c(=O)c1C#N,?
O=C(CSC1=Nc2ccccc2C2=NC(CC(=O)NC3CCCCC3)C(=O)N12)NCc1ccco1 (stereo not drawn),31.6µM*
Cn1c(CCNC(=O)c2cccs2)nnc1SCC(=O)N1CCN(c2ccccc2)CC1,-3.6%
COc1cc(C(=O)OCCN2CCOCC2)cc(OC)c1OC,3.0%
COc1ccc(N2C(=O)CCC(C(=O)Nc3ccccn3)C2c2ccc(OC)c(OC)c2)cc1 (stereo not drawn),16.6%
COc1ccc(-c2nc3c(=O)n(C)c(=O)[nH]c3n2CCc2ccccc2)cc1,25.1µM*
O=C(NCc1cccs1)c1ccc2c(c1)ncn2C1CCCC1,3.5%
CN(CC(=O)N1CCN(c2ccccn2)CC1)S(=O)(=O)c1ccccc1,31.6µM*
COc1cccc(OC)c1-c1nnc(-c2cn(C)c3ccccc23)o1,2.51µM*
COc1ccc(OC)c2[nH]c(=O)c(CCNC(=O)c3ccc(S(=O)(=O)N4CCCCC4)cc3)cc12,-1.3%
O=C1C=C[C@@H](O)[C@H]2[C@@H]3C(=O)N(Cc4ccc5c(c4)OCO5)C(=O)[C@@H]3CC[C@H]12,1.8%[11.4 µM]
CCN(CC)S(=O)(=O)c1cccc(C(=O)NC2CCCCC2)c1,-4.8%
COC(=O)c1ccc(C(NC(=O)OCc2ccccc2)/C(=C/[C@@H](C)C(=O)N(C)Cc2ccccc2)c2cccnc2)cc1 (stereo partly drawn),-2.6%
c1ccc(-n2nnnc2-n2nnc3ccccc32)cc1,1.2%
Cc1noc(C)c1CSCC(=O)OCC(=O)N1CC(=O)Nc2ccccc21,3.6%
CC(C)Cn1cc(C(=O)NCc2cccs2)c2c3ccccc3n(C)c2c1=O,-14.6%
Cc1ccc2c(c1)NC(=O)C(CC(=O)NCc1ccc(F)cc1)O2 (stereo not drawn),-1.0%
COc1ccc(S(=O)(=O)N2CCc3ccccc32)cc1C(=O)OCc1c(C)noc1C,-2.3%
Cc1ccc(S(=O)(=O)Nc2ccccc2C=O)cc1,1.1%[11.4 µM]
O=C(CN1C(=O)c2ccccc2C1=O)Nc1ccc(-c2nc3ccccc3o2)cc1,174.7%[activator]
CCOC(=O)c1ccc(NS(=O)C23CC4CC(CC(C4)C2)C3)cc1 (stereo not drawn),3.2%
Cc1ccc(/C(O)=C2/C(=O)C(=O)N(CCN3CCOCC3)C2c2cccnc2)cc1 (stereo not drawn),-2.6%
COc1ccc(CNc2ncnc3ccc(-c4c(C)noc4C)cc23)c(OC)c1,5.0%
C[C@@H](C(=O)NCCc1c[nH]c2ccccc12)[C@H]1C[C@]1(C)[C@H](NC(=O)OCc1ccccc1)c1ccccc1,-11.4%
CN(C(=O)OCc1ccccc1)C(CC(N)=O)C(=O)O (stereo not drawn),6.8%
N#C[C@@H]1[C@@H]2C(=O)N(c3ccc4c(c3)OCCO4)C(=O)[C@@H]2C2c3ccccc3C=CN21 (stereo partly drawn),25.1µM*
O=C(CSC1=NC(=O)C(Cc2ccccc2)C(=O)N1)NC1CCCCC1 (stereo not drawn),-13.7%
CC(C)NC[C@H]1CCc2cc(CO)c([N+](=O)[O-])cc2N1,-6.0%[25.6 µM]
CCOC(=O)C(C)Sc1nnc(Cc2cc(=O)[nH]c(=O)[nH]2)n1-c1ccc(OCC)cc1 (stereo not drawn),11.5%
CCc1cccc2c(=O)c(C(=O)N3CCOCC3)c[nH]c12,6.4%
CCOCCCNS(=O)(=O)c1ccc(Br)cc1,-10.1%
CCCC1(CCC)NC(=O)NC1=O,13.8%
CC(Cc1ccccc1)N/C=C1/CC(=O)NC1=O (stereo not drawn),-7.1%
CCCCOc1ccc(C(=O)Oc2ccc(C)nc2)cc1,-10.0%
CS(=O)(=O)N(CC(=O)N1CCC(C(N)=O)CC1)c1ccc(Oc2ccccc2)cc1,11.3%

# Sorted by molecular weight (rising): part of the list above.
SMILES,HSD17B inh
c1ccc(-n2nnnc2-n2nnc3ccccc32)cc1,1.2%
Cc1ccc(NC(=O)c2c(-c3c(F)cccc3Cl)noc2C)cc1F,-9.5%
O=C(CSC1=NC(=O)C(Cc2ccccc2)C(=O)N1)NC1CCCCC1 (stereo not drawn),-13.7%

# (cont.)
SMILES,HSD17B inh
Cc1ccc(C(=O)CCC2CCCC2=O)cc1 (stereo not drawn),2.6%
COc1cccc(NC(=O)C2CCN(c3ncccn3)CC2)c1,1.8%
CCOC(=O)c1ccc(Oc2nc(NC(C)(C)C)nc(N(C)C)n2)cc1,-6.4%
CCC(C)[C@@H](NC(=O)OC(C)(C)C)c1nnc(S(=O)(=O)Cc2cccc(C)c2)o1 (stereo partly drawn),-5.5%
COc1ccccc1-c1cc(C(=O)NCc2ccc(F)cc2)no1,-5.6%
COC(=O)CNC(=O)C12CC3(C)CC(C)(CC(C)(C3)C1)C2,0.6%
CC(=O)Nc1ccc2c(c1)CCCN2C(=O)c1ccccc1,8.5%
Cc1cccc(CCNS(=O)(=O)c2cnc[nH]2)c1,-3.0%
CCOC(=O)c1ccccc1NC(=O)CSc1nc2ccccc2n1CC(=O)N1CCCC1,12.3%
Cc1nc2ccc(NC(=O)c3c(-c4ccccc4)noc3C)cc2s1,-5.0%
Cc1nc2sc(C(c3cccs3)N3CCN(C(=O)c4ccco4)CC3)c(O)n2n1 (stereo not drawn),?
COc1ccc2c(C(F)(F)F)cc(=O)oc2c1C,25.1µM*
COC(=O)CSc1nc(C2CC2)nc2ccccc12,1.3%
O=C(c1ccc2c(c1)C(=O)N(Cc1ccco1)C2O)N1CCOCC1 (stereo not drawn),8.0%
CCN(C1CCCCC1)S(=O)(=O)c1cc(C)ccc1OC,5.3%
CCOc1cccc(C(=O)Nc2ccc(N3CCN(S(C)(=O)=O)CC3)cc2)c1,0.0%
Cc1nc(NCc2ccccc2)c2nc(-c3ccccc3)n(CCN3CCCCC3)c2n1,25.1µM*
CCCN(CCC)C(=O)CSc1nc2n[nH]c(C)c2c(=N)n1-c1ccc(OCC)cc1,?
NC(=O)c1c(NC(=O)COC(=O)CSc2nnc(-c3ccc(Cl)cc3)o2)sc2c1CCC2,?
CCCCN(CCCC)S(=O)(=O)c1ccc(C(=O)Nc2nnc(COC)o2)cc1,5.8%
COc1cccc(CNC(=O)C2CCN(Cc3cnn(-c4ccccc4)c3-n3cccc3)CC2)c1,1.1%
COc1ccc(C2CC(C(F)(F)F)n3nc(C(=O)N(C)Cc4cn(C)nc4C)c(Cl)c3N2)cc1 (stereo not drawn),5.7%
O=S(=O)(c1ccc2c(c1)OCCO2)N1CCC(c2nc3ccccc3[nH]2)CC1,11.0%
O=C(OCc1ccccc1)c1ccccc1O,1.7%

# Of the compounds above, these contain a halogen.
SMILES,HSD17B inh
Cc1ccc(NC(=O)c2c(-c3c(F)cccc3Cl)noc2C)cc1F,-9.5%
CC(C)CNS(=O)(=O)c1ccc(OCC(=O)Nc2ccc3c(c2)OCO3)c(Cl)c1,-5.6%
COc1ccc(Cl)cc1NS(=O)(=O)c1ccc(S(=O)(=O)N2CCCC2)cc1,?
CSc1nc2n(n1)C(c1cc(Br)ccc1F)C(C(=O)N(C)C)=C(C)N2 (stereo not drawn),-4.8%
Cc1cc(C)n(Cc2cccc(F)c2)c(=O)c1C#N,?
Cc1ccc2c(c1)NC(=O)C(CC(=O)NCc1ccc(F)cc1)O2 (stereo not drawn),-1.0%
CCOCCCNS(=O)(=O)c1ccc(Br)cc1,-10.1%
COc1ccccc1-c1cc(C(=O)NCc2ccc(F)cc2)no1,-5.6%
COc1ccc2c(C(F)(F)F)cc(=O)oc2c1C,25.1µM*
NC(=O)c1c(NC(=O)COC(=O)CSc2nnc(-c3ccc(Cl)cc3)o2)sc2c1CCC2,?
COc1ccc(C2CC(C(F)(F)F)n3nc(C(=O)N(C)Cc4cn(C)nc4C)c(Cl)c3N2)cc1 (stereo not drawn),5.7%

# Structures listed so far containing a tert-butyl group:
SMILES,HSD17B inh
CCOC(=O)c1ccc(Oc2nc(NC(C)(C)C)nc(N(C)C)n2)cc1,-6.4%
CCC(C)[C@@H](NC(=O)OC(C)(C)C)c1nnc(S(=O)(=O)Cc2cccc(C)c2)o1 (stereo partly drawn),-5.5%

# More structures.
SMILES,HSD17B inh
CC(=O)Oc1ccc2oc3c(c2c1)C(=O)CCC3,-2.3%
O=C(NCc1ccc2c(c1)OCO2)C1CCCN1C(=O)Nc1ccccc1 (stereo not drawn),11.0%
O=C(COc1ccc(Cl)cc1Cl)NC(=O)N1CCOCC1,-3.7%
CCOCCCNC(=O)c1ccccc1Br,6.1%
CCOC(=O)c1sc(NC(=O)CSc2nnc(-c3ccco3)o2)c(C(=O)OCC)c1C,-18.0%
CC(=O)OC1CC2C(C)(C)C=CC(=O)[C@@]2(C)C2CC[C@@]3(C)C(c4ccoc4)OC(=O)C4OC43[C@]12C (stereo partly drawn),-0.7%
CCOc1ccccc1NC(=O)c1cccc(NC(=O)c2ccco2)c1,-7.9%
COCCCN(C(=O)Cn1ncc2c(=O)oc3ccc(C)cc3c21)C(C)c1ccncc1 (stereo not drawn),3.5%
CCOC(=O)C1CCN(C(=O)c2ccc(NC(=O)C3CCCO3)cc2)CC1 (stereo not drawn),15.8%
O=C1CC(c2ccc(S(=O)(=O)N3CCCCC3)cc2)CN1 (stereo not drawn),2.0%
CC1(C)CC(=O)C(C=NCCO)=C(O)C1,-1.7%
COc1ccc(CN(C2CCCC2)S(=O)(=O)c2ccc(-n3cnnn3)c(OC)c2)cc1OC,?
CC(C)(Oc1ccc(Cl)cc1)C(=O)NCc1ccncc1,5.8%
CCN(CC(=O)Nc1ccc2c(c1)OCCO2)c1ccc(S(=O)(=O)N2CCOCC2)cn1,7.7%
CCOC(=O)c1cc(C(=O)c2cc(F)ccc2O)coc1=N,?
COc1ccc(C(CC(=O)O)NC(=O)c2cccs2)cc1 (stereo not drawn),10.1%
Cc1ccnc(NS(=O)(=O)c2cccs2)c1,3.7%
CCOC(=O)Cn1c(=O)oc2cc(S(=O)(=O)NCCCc3ccccc3)ccc21,6.6%
Cc1nn(Cc2ccc(Cl)c(Cl)c2)c(C)c1NC(=O)c1cc(C2CC2)on1,-18.1%
O=C(Cn1[nH]c(=O)c2ccccc2c1=O)OCC(=O)N1CCCc2ccccc21,3.3%
CSC1=NCCN1C(=O)c1ccc(Br)o1,4.0%
CCC(=O)Nc1cc(C(C)C)c(O)cc1C,4.3%
Clc1cccc2sc(N3CCCC3)nc12,-9.7%
CN1CCN(C2=NC3(CCCC3)C(C#N)C(=O)N2)CC1 (stereo not drawn),9.4%
O=C(CC1c2ccccc2Oc2ccccc21)NCc1ccco1,-10.7%
CCOC(=O)C1=C(C)NC(C)=C(C(=O)OCC)C1C(=O)OCC(=O)N1CCc2ccccc2C1,-25.7%
CCCCN(C(=O)c1cc(OC)c(OC)c(OC)c1)C1=CC2CCC(C1)N2C (stereo not drawn),9.2%
O=C(CCS(=O)(=O)c1cccc2nonc12)NC1CCCCCC1,-9.2%
Cc1ccccc1OCC(=O)Nc1ccc(N2CCN(C(=O)C(C)C)CC2)c(Cl)c1,1.6%
Cn1c(C(=O)OCC(=O)NCc2ccco2)cc2sccc21,-3.6%
CCCCn1c(SCC(=O)N2CCCc3ccccc32)nc2c1c(=O)n(C)c(=O)n2C,3.6%
COc1ccccc1CNC(=O)COC(=O)c1cnccn1,9.1%

# Compound activity (PubChem BioAssay)
